Screens from PubChem BioAssay.
Ecoli rRNA inh: inhibits bacterial ribosomal RNA function over humanized ribosomes; hit rate 1.6% among 350,000; GFP signal change (wild-type ribosome), % (concentration not given with the values); E. coli WT GFP vs humanized-ribosome RFP mutants, fluorescence, 24 h; hits give low values; DMSO median 0, no signal -100;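 active = significant combined selectivity score with lowered wild-type GFP, culture density cut under 30%, mutant RFP and density less affected; inactive = any of these conditions unmet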; also: one replicate is shown; some compounds called inactive have numbers as strong as hits
Calb FLC: C. albicans growth modulation with fluconazole; C. albicans CaCi-2 (fluconazole-resistant clinical isolate) + fluconazole, Alamar Blue growth, 48 h; growth inhibition, % (test concentration not listed); hit rate 0.57% among 300,000;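 active = most replicates above 75%; inconclusive = exactly half above 75%; inactive = most below 75%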;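 also: all wells also contain fluconazole at 8 µg/ml as a sub-toxic cotreatment; 0% = median of DMSO wells and 100% = median of geldanamycin control wells; wells of about 8 µL received 7.5 nL stock; the first replicate is given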
Beta2AR agonist: human beta-2 adrenergic receptor agonism by FAP; Am2.2-beta2AR cells, FAP receptor internalization, flow cytometry; reference of the scale not given here; response, % (concentration not given with the values); hit rate 0.43% among 340,000; AID 504454;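 active = response above a set limit, near 3 SD of response in nonfluorescent compounds, cut at about 42% in these data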;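 also: stock transfer was 100 nL into about 11 µL; a reference agonist was the positive control; negative values mostly stem from fluorescent compounds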
Target sequence (P07550 whole entry, looked up): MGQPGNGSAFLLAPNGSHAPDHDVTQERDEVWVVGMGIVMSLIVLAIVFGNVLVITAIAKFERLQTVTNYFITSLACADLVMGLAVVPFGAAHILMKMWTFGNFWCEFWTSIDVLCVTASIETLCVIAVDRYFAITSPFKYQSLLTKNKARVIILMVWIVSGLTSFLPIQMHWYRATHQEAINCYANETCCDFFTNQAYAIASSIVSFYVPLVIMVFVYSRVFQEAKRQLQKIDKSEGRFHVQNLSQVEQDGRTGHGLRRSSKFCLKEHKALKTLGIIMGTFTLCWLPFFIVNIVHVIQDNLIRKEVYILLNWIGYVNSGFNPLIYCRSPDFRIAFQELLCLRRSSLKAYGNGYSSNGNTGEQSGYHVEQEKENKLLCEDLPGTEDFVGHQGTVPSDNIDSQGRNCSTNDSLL
Bfl-1 A1 inh: inhibitors of the anti-apoptotic protein A1, read as caspase activation. MEF A1-2A-BIM cells, Caspase-Glo 3/7 luminescence, 3 h; percent of clofoctol response, vehicle zero. caspase activation, % (test concentration not listed). hit rate 0.066% among 330,000. AID 2462;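 active = over half of replicate activation scores above 10%, or exactly half above 10 with the replicate mean above 10; inconclusive = replicate mean below 10 yet half the replicates above 10; inactive = over half of replicates below 10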;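 also: wells of about 30 µL received 50 nL stock; many hits fall short of the cut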
T cruzi repl: T. cruzi replication inhibition | T. cruzi beta-gal in NIH3T3, luminescence, 90 h | hit rate 1.4% among 300,000 | inhibition, % (test concentration not listed);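 active = mean inhibition across valid replicates above about 55%, limit read from the data; inconclusive = mean below that limit but half or more replicates reach it; inactive = mean below it, under half of replicates reach it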;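 also: signal also drops with host cell toxicity which is not excluded here; 0% = plate median of DMSO wells and 100% = zero luminescence signal; higher percent means less beta-gal luminescence so fewer parasites; stock transfer was 50 nL into about 50 µL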
ALR inh: blocks human ALR sulfhydryl oxidase activity; P55789; inhibition, % (concentration not given with the values); AID 485317; purified ALR, DTT oxidation, H2O2 HRP-luminol luminescence; hit rate 3.8% among 290,000;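 active = mean and each replicate at 75% or more; inconclusive = only one of the two met; inactive = neither met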;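 also: stock transfer was 7.5 nL into about 7.5 µL; 0% = neutral wells and 100% = wells with inactivated enzyme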
Target sequence (P55789 whole entry, looked up): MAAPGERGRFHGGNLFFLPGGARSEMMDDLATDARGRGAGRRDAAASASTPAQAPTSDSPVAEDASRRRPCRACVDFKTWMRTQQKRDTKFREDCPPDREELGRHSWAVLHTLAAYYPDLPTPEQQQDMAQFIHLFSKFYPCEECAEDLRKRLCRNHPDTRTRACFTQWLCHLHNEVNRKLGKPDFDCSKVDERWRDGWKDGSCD
LANA-H2B inh: blocks KSHV LANA binding to histone H2A/H2B; Q9QR71; cell-free LANA-H2A/H2B peptide, fluorescence polarization; inhibition, % (test concentration not listed); hit rate 0.6% among 320,000; in the data active = inhibition mostly above about 10%, no sharp cut-off; inactive = mostly below about 6.7%;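 also: stock transfer was 7.5 nL into about 10 µL; 0% = median of vehicle wells and 100% = median of positive control wells; one replicate is shown; the record names a cut of 25% in any replicate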
Beta cell apopt: blocks beta cell apoptosis; INS-1E cytokine-induced death, ATP luminescence, 48 h; percent of positive-control rescue, neutral wells zero; protection from apoptosis, % (test concentration not listed); hit rate 0.8% among 300,000; AID 435005;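 active = all replicates at 75% or more, or half of them and the mean; inconclusive = half reach 75% but not the mean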;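 also: 0% = cytokine-treated negative control wells and 100% = positive control rescue; higher means more ATP so stronger rescue from cytokine killing; wells of about 40 µL received 100 nL stock; the first replicate is given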
Ecoli rRNA inh OD600: second read-out of Ecoli rRNA inh, no call of its own (marks repeat the call); OD600 change, %; measured here: OD600 growth;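 optical density of the mix in the first replicate; 0 = DMSO median and -100 = no signal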
Ecoli rRNA inh RFP: second read-out of Ecoli rRNA inh, no call of its own (marks repeat the call); RFP signal change, %; measured here: RFP humanized mutant strains;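 first replicate; 0 = DMSO median and -100 = no signal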
Numbers without * were called inactive; ? = inconclusive; . = not tested or not shown. These rows are one share of the data. The share of hits here may be higher or lower than overall.

smiles	Ecoli rRNA inh	Ecoli rRNA inh OD600	Ecoli rRNA inh RFP	Calb FLC	Beta2AR agonist	Bfl-1 A1 inh	T cruzi repl	ALR inh	LANA-H2B inh	Beta cell apopt
O=C(Cn1c(C(F)(F)F)nc2ccccc21)c1ccc(Cl)cc1	.	.	.	-8	-4	-0.4	-9	1	-5.8	-2
CC(=O)NNc1ncnc2c1cnn2-c1ccc(C)c(C)c1	9	0	0.2	17	0	0.3	2	24	1.1	-10
O=C1c2ccccc2NC(c2ccc(O)cc2)N1Cc1ccco1 (configuration not stated)	.	.	.	?	23	0.7	7	13	-2.8	1
CN(Cc1ccccc1)S(=O)(=O)c1ccc(N2CCCC2=O)cc1	-3	1	-1.5	.	-8	-0.7	.	-7	.	-2
O=C(c1sc2ccccc2c1Cl)N(Cc1ccccc1)C1CCS(=O)(=O)C1 (configuration not stated)	.	.	.	0	-1	.	15	-6	-0.9	4
C=C1CCC2[C@](C)(CO)[C@H](O)CC[C@@]2(C)[C@@H]1C/C=C1\C(=O)OC[C@H]1O (some centres not stated)	.	.	.	3	2	0.2	-29	-4	3.4	-17
Cc1cccc2c(N=Nc3ccc(S(=O)(=O)Nc4ccc(Cl)cc4)cc3[N+](=O)[O-])c(O)[nH]c12	5	8	4.8	6	-3	0.4	47	-2	3.3	-3
O=c1[nH]cc(S(=O)(=O)Nc2ccc3c(c2)OCO3)c(=O)[nH]1	4	5	-2.7	1	14	?	-2	-5	-2.3	-8
O=C(c1ccccn1)N(Cc1cc2ccccc2[nH]c1=O)C1CCCCC1	.	.	.	-8	5	1.0	6	2	3.6	6
O=C(Nc1ccccc1)C1CC2CCCC(C1)C2=O (configuration not stated)	1	8	14	12	0	0.1	-17	-6	10	0
CC1Cc2nc(SCC(=O)NCCc3ccccc3)n(C)c(=O)c2S1 (configuration not stated)	2	1	-2.2	-2	0	-0.2	-2	.	-9.5	0
NNC(=O)c1n[nH]c(=O)c2ccccc12	13	-4	-8.1	-2	-9	1.6	-7	-1	-2.2	-1
CN1CCN(CC(O)COc2ccc(Cl)cc2)CC1 (configuration not stated)	.	.	.	-4	-1	0.7	25	-5	-1.9	-11
O=C(Nc1ccc(OCC(F)(F)C(F)F)c(C(F)(F)F)c1)c1ccccc1	.	.	.	12	-3	-0.2	16	5	-1.6	2
COc1ccc(S(=O)(=O)N2CCOCC2)cc1NC(=O)Cc1ccc2c(c1)OCCO2	4	2	2.6	.	-1	-0.4	.	4	-2.9	3
CCC(=O)N1CCc2cc(S(=O)(=O)NCCC(=O)NC3CCCCCC3)ccc21	2	2	-1.0	-3	-15	-0.6	1	-1	2.4	-2
O=C(COC(=O)c1ccccc1C(=O)c1ccccc1)NCCc1ccccc1	-26	-34	-7.2	0	10	-0.2	-4	-6	2.4	-5
Cc1ccc(N=C2C(=O)Nc3ccccc32)cc1	10	14	-2.3	0	1	3.4	-7	47	4.6	-9
Cc1ccc(C(=O)Nc2cc([N+](=O)[O-])ccc2F)s1	6	3	0.7	-4	-6	-1.9	50	0	0.6	5
O=C(CCn1cccc1)Nc1cccc(F)c1	.	.	.	1	4	-0.1	6	8	1.7	-5

Reprinted from above (12 entries):
smiles	Ecoli rRNA inh	Ecoli rRNA inh OD600	Ecoli rRNA inh RFP	Calb FLC	Beta2AR agonist	Bfl-1 A1 inh	T cruzi repl	ALR inh	LANA-H2B inh	Beta cell apopt
O=C(c1ccccn1)N(Cc1cc2ccccc2[nH]c1=O)C1CCCCC1	.	.	.	-8	5	1.0	6	2	3.6	6
O=C(Nc1ccccc1)C1CC2CCCC(C1)C2=O (configuration not stated)	1	8	14	12	0	0.1	-17	-6	10	0
CC1Cc2nc(SCC(=O)NCCc3ccccc3)n(C)c(=O)c2S1 (configuration not stated)	2	1	-2.2	-2	0	-0.2	-2	.	-9.5	0
NNC(=O)c1n[nH]c(=O)c2ccccc12	13	-4	-8.1	-2	-9	1.6	-7	-1	-2.2	-1
CN1CCN(CC(O)COc2ccc(Cl)cc2)CC1 (configuration not stated)	.	.	.	-4	-1	0.7	25	-5	-1.9	-11
O=C(Nc1ccc(OCC(F)(F)C(F)F)c(C(F)(F)F)c1)c1ccccc1	.	.	.	12	-3	-0.2	16	5	-1.6	2
COc1ccc(S(=O)(=O)N2CCOCC2)cc1NC(=O)Cc1ccc2c(c1)OCCO2	4	2	2.6	.	-1	-0.4	.	4	-2.9	3
CCC(=O)N1CCc2cc(S(=O)(=O)NCCC(=O)NC3CCCCCC3)ccc21	2	2	-1.0	-3	-15	-0.6	1	-1	2.4	-2
O=C(COC(=O)c1ccccc1C(=O)c1ccccc1)NCCc1ccccc1	-26	-34	-7.2	0	10	-0.2	-4	-6	2.4	-5
Cc1ccc(N=C2C(=O)Nc3ccccc32)cc1	10	14	-2.3	0	1	3.4	-7	47	4.6	-9
Cc1ccc(C(=O)Nc2cc([N+](=O)[O-])ccc2F)s1	6	3	0.7	-4	-6	-1.9	50	0	0.6	5
O=C(CCn1cccc1)Nc1cccc(F)c1	.	.	.	1	4	-0.1	6	8	1.7	-5

Going on with the list.
smiles	Ecoli rRNA inh	Ecoli rRNA inh OD600	Ecoli rRNA inh RFP	Calb FLC	Beta2AR agonist	Bfl-1 A1 inh	T cruzi repl	ALR inh	LANA-H2B inh	Beta cell apopt
CC(=O)c1cc(-c2ccccc2)n(CC(=O)NC(C)(C)C)c1C	-4	-5	0.9	-4	7	1.3	2	-6	4.7	-9
CCOc1ccc(CCNC(=O)CCNC(=O)c2ccco2)cc1OCC	1	2	6.3	33	2	0.6	-1	-1	5.1	-1
O=C(NC1(Cc2ccccc2)CCN(Cc2ccc(-c3ccccc3)cc2)C1=O)c1ccccc1 (configuration not stated)	-4	-4	4.4	.	13	0.6	.	-12	-4.1	13
Cc1nnc(SCC(=O)NCc2ccccc2)[nH]c1=O	20	11	-2.9	-3	1	1.9	-2	0	-3.2	-2
N#C/C(=N\Nc1ccccc1)C(N)=S	-34	-44	-5.2	-12	-4	-2.0	9	92*	-3.2	9
Cc1noc(C)c1COc1ccc(CC(=O)NC2CCCCCC2)cc1	18	13	1.2	11	-5	0.1	5	-1	2.8	8
CN(C)c1cc[n+](CC(=O)N2CCCc3ccccc32)cc1	14	17	-1.0	-16	-9	-1.2	-10	-4	7.8	2
COC(=O)c1cc(NC(C)=O)ccc1N1CCOCC1	4	3	0.0	-6	-3	0.1	1	-18	-1.8	-5
COc1ccccc1N1CCN(S(=O)(=O)c2cn(C)nc2C)CC1	4	2	0.3	-4	-5	-0.3	10	57	1.1	0
CC(C)(C)SCCNC(=O)CN(c1ccc(F)c(Cl)c1)S(C)(=O)=O	.	.	.	-12	8	0.6	-14	12	1.4	2
O=C(NC1CCN(C(=O)Nc2ccccc2Cl)CC1)c1ccccc1	12	9	5.2	-2	0	2.5	-7	-4	3.9	6
CCCNC(=O)Cn1sc2nc(C)cc(C)c2c1=O	21	5	2.2	-7	0	0.1	56*	19	0.1	-1
O=C(NCC1CCCO1)c1onc(CSc2ccccc2)c1C(=O)O (configuration not stated)	12	19	-1.4	2	7	0.5	-4	1	4.0	.
O=C(COC(=O)Cc1ccccc1F)Nc1ccc(SC(F)F)cc1	-6	-7	-2.3	5	2	0.0	-31	20	2.1	-4
O=c1c(Br)c(N2CCCC2)cnn1-c1ccccc1	.	.	.	-17	-11	-1.3	-11	-5	-3.5	-2
Clc1cccc(CN2CCC(Cc3ccccc3)CC2)c1	.	.	.	-13	0	0.3	18	2	2.9	3
O=C(NC1CCCC1)C(c1ccccc1)N(C(=O)c1ccno1)c1ccccc1 (configuration not stated)	.	.	.	.	-1	0.1	.	-6	-8.4	-6
O=C(N/N=C/c1c[nH]c2ccc(Br)cc12)c1ccn(Cc2ccc(Cl)cc2)n1	.	.	.	-2	1	-0.5	8	10	-2.5	0
Cc1cc(=O)oc2c(C)c(OC(C)C(=O)NCC3CCC(C(=O)O)CC3)ccc12 (configuration not stated)	.	.	.	-4	4	?	8	-10	-0.5	-5
COc1ccc(C(=O)NCCNC(=O)c2cnccn2)cc1OC	2	-1	3.5	19	2	0.4	-9	-1	-3.1	1
Cn1c(COc2ccc(F)cc2)nnc1SCC(=O)NC1CC1	2	7	2.7	-1	-7	0.0	-2	-1	-1.3	-6
CCC(C)c1ccc(NC(=O)C2CCN(c3ccc(C(F)(F)F)cn3)CC2)cc1 (configuration not stated)	.	.	.	2	5	-0.4	30	-2	-3.9	10
CC(C)(C)OC(=O)C[C@@H]1C/C=C\C[C@H](CC(=O)N[C@H](CO)Cc2ccccc2)C(=O)N[C@H](Cc2ccccc2)COC1=O	1	6	3.2	.	25	0.5	.	2	-2.4	-12
Cc1noc(C)c1CSCC(=O)N(C)CC(=O)Nc1ccc(Cl)c(Cl)c1	-15	-35	6.4	-10	-7	9.7*	-5	2	2.9	-10
CCN(CC)C(=O)CSc1ncnc2c1cnn2Cc1ccccc1	.	.	.	-9	-4	0.7	0	4	2.5	-2
CCc1ccc(/C([O-])=C(/C(=S)NCCN2CCOCC2)[n+]2ccccc2)cc1	2	4	-5.3	10	-2	0.4	-10	-7	1.5	-3
CCOc1ccc(OCCOCCOc2ccccc2Cl)cc1	.	.	.	4	3	0.1	-11	.	-5.5	1
CC(=O)Nc1ccc(S(=O)(=O)N2CCN(C3CCCCCCC3)CC2)cc1	.	.	.	-12	-4	0.1	1	-18	-3.3	-4
O=C(CS(=O)CC(=O)Nc1ccccc1-c1ccccc1)Nc1ccc(F)cc1 (configuration not stated)	-6	-7	-4.3	4	13	0.9	-3	-1	-2.8	0
O=C(Nc1ccccc1)C1=C[C@H](c2ccccc2)C[C@H](OCc2ccc(CO)cc2)O1	-12	-16	0.0	7	0	2.9	-9	-12	6.4	2
Cc1ccc(/C=N/NC(=O)CSc2nc3nc(C)cc(C)n3n2)cc1	3	1	-7.5	-5	-10	0.4	-12	-3	0.7	10
COc1cccc(-c2ccc3c(c2)S(=O)(=O)c2cccc(C(=O)O)c2C3=O)c1OC	12	9	-2.7	.	-2	0.7	.	0	4.7	0
COc1ccc(C2=Nc3cc(C)ccc3OC2)cc1	.	.	.	-3	23	-4.5	5	2	4.8	2
N=c1c(C(=O)NC2CCCCC2)cc2c(=O)n3ccccc3nc2n1CCc1ccccc1	28	10	-4.5	12	4	-0.1	30	0	-8.4	9
